WNV protease inh – inhibitors of West Nile virus NS2B-NS3 protease; z-score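 (tested at a level between 10 and 100 µM)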; AID 577; P06935; WNV NS2B-NS3 protease, fluorogenic substrate Ex360/Em465; hits give low values; hit rate 0.18% among 65,000;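 active = z-score at -3 or under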;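 note: score is relative to mean and spread of the compound wells of a plate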
Target sequence (P06935 1371-1501 limits assumed): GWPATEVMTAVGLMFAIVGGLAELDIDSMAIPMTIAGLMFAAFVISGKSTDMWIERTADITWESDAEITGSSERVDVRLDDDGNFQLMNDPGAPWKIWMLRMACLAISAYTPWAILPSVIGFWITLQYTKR
Target sequence (P06935 1502-1679 limits assumed): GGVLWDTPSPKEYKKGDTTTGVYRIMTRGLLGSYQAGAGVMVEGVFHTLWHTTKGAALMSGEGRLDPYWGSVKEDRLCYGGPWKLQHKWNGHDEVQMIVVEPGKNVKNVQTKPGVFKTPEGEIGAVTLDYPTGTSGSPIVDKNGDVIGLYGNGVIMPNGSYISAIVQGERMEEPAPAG
Hsc70 ATP site – small molecules displacing fluorescent ligand from Hsc70 – biochemical, fluorescence polarization, primary screen (AID 568) | Hsc70 fluorescence polarization, probe displacement; higher % means a stronger effect; strong numbers were not always called active | one-dose displacement, % at 20 µM; IC50 in µM for titrated hits | 83,000 tested, under 10 active;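 active = displacement above 50% without optical interference and an IC50 on retest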;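 note: ATPase domain with a fluorescein-tagged ATP probe; 0% = vehicle and 100% = excess ADP; read after one hour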
MT1-MMP reporter – inhibitors of MT1-MMP promoter transcription, cell-based, luciferase reporter, luminescence (AID 618) | MT1-MMP promoter luciferase reporter cells, luminescence | calls from a first round at 10 µM; hits with a dose series show EC50 in µM | hit rate 0.62% among 87,000;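 active = over half of the reporter light lost at 10 µM or EC50 under 50 µM; inactive = the rest and hits that failed the dose series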;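 note: actives suppress MT1-MMP promoter-driven transcription so potencies describe inhibitors; HT1080 fibrosarcoma cells; overnight exposure; toxic or luciferase-blocking compounds were not removed from the actives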
An asterisk follows results filed as active; i = inactive; · = not tested or not shown.

Below each compound: WNV protease inh | Hsc70 ATP site | MT1-MMP reporter
> c1ccc2c(c1)nnn2Cc1nnc2sc(-c3ccc4c(c3)OCCO4)nn12
    -0.87 | 0.3% | i
> COCCn1c(COc2ccc(Cl)cc2)nnc1SCC(N)=O
    0.64 | 0.2% | i
> COc1ccc(CNC(=O)CSc2ncnc3nc[nH]c23)cc1
    -1.2 | -9.7% | i
> Cn1c(=O)c2cn(Cc3ccc(Cl)cc3)cc2n(C)c1=O
    -1.4 | 5.1% | i
> O=C(Nc1ccccc1C(=O)N1CCOCC1)c1ccncc1
    -0.32 | -1.3% | i
> COc1ccccc1NC(=O)CNC(=O)c1ccc(F)cc1
    -1.4 | 4.2% | i
> Cc1ccc2[nH]c(C)c(CC(=O)O)c2c1
    · | 6.1% | i
> CCOc1cccc(-c2nn3c(-c4ccccn4)nnc3s2)c1
    0.16 | -11% | i
> CCOC(=O)C1=C(N)N(c2ccc(N3CCCCC3)cc2)C(=O)C1
    -0.26 | 2.8% | i
> COc1cccc(C2C3(C#N)C(N)=NC(OC)(OC)C23C#N)c1 (stereo not given)
    · | -2.6% | i
> Cc1ccc(C)c(-n2c(SCC(N)=O)nnc2-c2ccccn2)c1
    -0.85 | 2.1% | i
> COc1ccc(C)cc1NC(=O)C1CCCN1S(=O)(=O)c1ccc2c(c1)CCC(=O)N2 (stereo not given)
    0.42 | -1.8% | i
> COc1cccc(C2=NOC(C(=O)NCc3ccccc3)C2)c1 (stereo not given)
    -0.22 | -3.4% | i
> c1ccc(CN2C3=NCCCN3c3ccccc32)cc1
    -0.37 | 1.4% | i
> CC(C)CCn1c(-c2nonc2N)nc2ccccc21
    · | -3.0% | i
> Cn1c(SCc2ccc(F)cc2)nnc1-c1cccs1
    0.34 | -5.0% | i
> NC(=O)c1cccc(S(=O)(=O)N2CC(c3ccccc3)CC2=O)c1 (stereo not given)
    1.1 | -0.5% | i
> COc1ccccc1Nc1nc(N)nc(CN2CCOCC2)n1
    -0.93 | 7.5% | i
> Cn1c(C(=O)O)c(CC(=O)N2CCC(Cc3ccccc3)CC2)c2ccccc21
    · | 0.5% | i
> Cn1c(SCCC(=O)O)nnc1-c1ccncc1
    · | 7.4% | i
> CC1CCCCC12NC(=O)N(Cn1nnc3ccccc3c1=O)C2=O (stereo not given)
    0.96 | -2.9% | i
> CN(C(=O)c1ccncc1)C1CC(C)(C)N(O)C(C)(C)C1
    -0.82 | -2.5% | i
> COc1ccc(C2C3=C(CC(C)(C)CC3=O)Nc3c2c(=O)[nH]c(=O)n3Cc2ccccc2)cc1OC (stereo not given)
    -1.6 | 0.4% | i
> Cn1c(=O)c2c(nc(-n3ccnc3)n2Cc2ccc(Cl)cc2Cl)n(C)c1=O
    1.5 | -2.6% | i
> COc1nc(C#N)c(N2CCOCC2)o1
    1.7 | 2.3% | i
> CCCCCCOc1ccc(OCC(O)CN2C(=O)NC(C)(C)C2=O)cc1 (stereo not given)
    1.3 | 4.4% | i
> CCNC(=O)CN(c1ccc(C)cc1)S(=O)(=O)c1ccccc1
    · | -1.4% | i
> CCC(Sc1nncn1C)C(=O)Nc1nnc(-c2ccc(Cl)cc2)s1 (stereo not given)
    1 | 2.3% | i
> Cc1cnc(C(=O)OCC(=O)NCCc2ccccc2)cn1
    · | 7.2% | i
> CC1(C)C(c2cccs2)=[N+]([O-])C2(CCCCC/C2=N\NC(N)=O)N1O (stereo not given)
    · | 3.2% | i
> O=C(NC1CCCCC1)c1ccc(Cn2cc(Br)cn2)o1
    -0.96 | -4.6% | i
> COC(=O)c1ccc(NC(=O)CN2CCN(c3ccccc3C)CC2)cc1
    · | 1.3% | i
> Cc1ccnc(SCCn2c(N3CCC(C)CC3)nc3c2c(=O)n(C)c(=O)n3C)n1
    1.5 | 0.2% | i
> CCCNC(=O)c1cc(SC)ccc1Cl
    0.32 | -3.2% | i
> Cc1ccc(C)c(NC(=O)CN(C)S(=O)(=O)c2ccc(F)cc2)c1
    -0.46 | 1.4% | i
> O=c1c2ccccc2nnn1CSc1nnc(Nc2ccccc2)s1
    1.4 | -1.4% | i
> Cc1ccc(NC(=O)CN(C)C(=O)CSc2nc3ccccc3o2)cc1
    · | -0.3% | i
> COc1ccc(C(=O)OCCN2CCOCC2)cc1OC
    -0.84 | -1.2% | i
> CCCn1c(=O)c(C(=O)NCc2cccnc2)c(O)c2ccccc21
    0.48 | -2.2% | i
> Cc1[nH]c2ccc(F)cc2c(=O)c1SC(F)(F)C(F)F
    1.6 | -3.4% | i
> Cc1nc(C)n(C(C)CC(=O)O)n1 (stereo not given)
    0.5 | -4.3% | i
> CCC(=O)Nn1c(C)nnc1C
    -0.13 | -1.6% | i
> COc1cccc(NC(=O)n2nc(N)cc2-c2ccc(Cl)cc2)c1
    -0.11 | 3.9% | i
> CC1CCC2(CC1)NC(=O)N(Cc1nc(-c3ccccc3)no1)C2=O (stereo not given)
    0.22 | 7.5% | i
> Cc1ccc2c(c1)N(CC(=O)N1CCCCCC1)C(=O)CO2
    2.5 | -1.6% | i
> Oc1ccc(N=Cc2ccc(O)c(O)c2)cc1
    -0.93 | 8.4% | i
> O=C(C1CCCN(Cc2cccs2)C1)N1CCCCCC1 (stereo not given)
    0.47 | 0.5% | i
> C=CCN=C(NC#N)SCCc1ccccc1
    -0.3 | -0.8% | i
> O=C(NCc1cccnc1)C1c2ccccc2C(=O)N1C1CCCCCC1 (stereo not given)
    0.83 | 4.5% | i
> COCCCN1C(=O)c2ccc(C(=O)Nc3ccc(OC)cc3OC)cc2C1=O
    0.24 | 3.1% | i
> N/C(=N\c1nc2ccccc2o1)NC(=O)C(Cc1ccccc1)N1C(=O)c2ccccc2C1=O (stereo not given)
    -0.81 | -5.6% | i
> Cc1nc(SCC(=O)Nc2ccccc2C(F)(F)F)c2c(=O)n(C)c(=O)n(C)c2n1
    -0.19 | -3.2% | i
> CCn1c(CNc2ccccc2Cl)nnc1SCC(=O)OC1CCCCC1
    -0.57 | 0.9% | i
> CCOC(=O)CSC1=C(C#N)C(c2ccccc2)C(C(C)=O)=C(C)N1 (stereo not given)
    -0.87 | -4.0% | i
> O=C(Cn1cnc2c(cnn2-c2ccccc2)c1=O)OCc1ccccc1
    -0.32 | 5.9% | i
> Cc1ccc(Cl)cc1N1CCN(Cc2nc3c(c(=O)[nH]c(=O)n3C)n2Cc2ccccc2F)CC1
    -0.41 | -1.3% | i
> CSCCC(NC(=O)OC(C)(C)C)C(=O)NC(C(=O)NC(CC(C)C)C(N)=O)C(C)C (stereo not given)
    · | -0.5% | i
> Cc1cc(N2C(=O)C(=O)/C(=C(/O)c3ccc(Cl)cc3)C2c2cccc(Br)c2)no1 (stereo not given)
    0.05 | 3.0% | i
> COc1cccc2cc(C(C)N(CCCN3CCOCC3)C(=O)Nc3ccccc3)oc12 (stereo not given)
    -0.52 | -0.9% | i
> Cc1nc2ccccc2c2oc(C(=O)N3CCN(C4CCCCC4)CC3)cc12
    0.41 | 3.8% | i

Continued, overlapping the part above by 3 compounds.
Below each compound: WNV protease inh | Hsc70 ATP site | MT1-MMP reporter
> Cc1cc(N2C(=O)C(=O)/C(=C(/O)c3ccc(Cl)cc3)C2c2cccc(Br)c2)no1 (stereo not given)
    0.05 | 3.0% | i
> COc1cccc2cc(C(C)N(CCCN3CCOCC3)C(=O)Nc3ccccc3)oc12 (stereo not given)
    -0.52 | -0.9% | i
> Cc1nc2ccccc2c2oc(C(=O)N3CCN(C4CCCCC4)CC3)cc12
    0.41 | 3.8% | i
> CN(C)/C=C1\C=C(c2ccccc2)OC1=O
    0.42 | -3.3% | i
> CCOc1ccc(OCC)c(NC(=O)C2COc3ccccc3O2)c1 (stereo not given)
    0.74 | -0.7% | i
> CCOc1ccccc1NC(=O)c1ccoc1C
    · | -1.4% | i
> CCOc1ccc2nc(NC(=O)CSC3=NCCS3)sc2c1
    -0.71 | 1.0% | i
> CCOC(=O)C1C(=O)NC(SC)=C(C#N)C1c1ccccc1F (stereo not given)
    -0.42 | 3.3% | i
> Cn1c(=O)c2c(nc(CN3CCC(C(N)=O)CC3)n2Cc2ccccc2Cl)n(C)c1=O
    0.2 | 5.4% | i
> Cc1nc(NCC2CCCO2)c2oc3ccccc3c2n1 (stereo not given)
    · | 3.0% | i
> O=C(NCc1ccc(F)cc1)C1CCC(=O)N1CCc1ccccc1 (stereo not given)
    2.4 | 0.5% | i
> Cc1cc(C)n(CC2CC(=O)N(c3ccc(C)c(Cl)c3)C2=O)n1 (stereo not given)
    0.85 | -1.1% | i
> COc1ccccc1NC(=O)C(C)N1CCN(C/C=C/c2ccccc2)CC1 (stereo not given)
    -0.77 | -5.5% | i
> CC(C)(C)S(=O)(=O)c1ccccc1C(=O)O
    -0.46 | -11% | i
> Cc1ccc(S(=O)(=O)N[C@H](C(=O)N2CCC(C(=O)N3CCC[C@H]3C(=O)O)CC2)C(C)C)cc1
    -0.07 | -7.9% | i
> O=C(c1ccccc1)c1cc2ccccc2o1
    -1.1 | 5.7% | i
> COc1ccccc1CN1CC(C(=O)NCc2cccnc2)CC1=O (stereo not given)
    0.73 | -2.3% | i
> CCC(Sc1nccn1C)C(=O)Nc1cccc2ccccc12 (stereo not given)
    0.4 | -2.7% | i
> Cc1cc(Nc2ccc(C(C)C)cc2)n2ncnc2n1
    0.14 | 4.9% | i
> COc1cc(/C=C(/C(=O)c2cccs2)c2nc3ccccc3[nH]2)cc(OC)c1O
    · | -0.5% | i
> COC(=O)c1ccc(NC(=O)CSc2ccccn2)cc1
    · | 2.2% | i
> CC(C)N1CCc2c(sc(NC(=O)c3ccc(S(=O)(=O)N4CCOCC4)cc3)c2C(N)=O)C1
    -0.92 | -26% | i
> Cc1ccc(C(C(=O)NC(C)(C)C)N(Cc2cccs2)C(=O)c2csnn2)cc1 (stereo not given)
    · | 3.4% | i
> CCN(CC)S(=O)(=O)N1CCC(C(=O)NC2CCCC2)CC1
    0.52 | -1.0% | i
> Cc1onc(-c2ccccc2)c1C(=O)N1CCCc2ccccc21
    -0.37 | 8.5% | i
> CCCOc1ccccc1C1NC(=O)NC(C)=C1C(=O)OCc1ccccc1 (stereo not given)
    · | 1.1% | i
> COCCNC(=O)c1ccccc1-c1ccccc1C(=O)O
    -0.07 | -6.8% | i
> COc1ccc(CNC(=O)Nc2ccc(OC)cc2)cc1
    -0.6 | -3.4% | i
> Clc1ccc2nc(CN3CCCCCC3)cn2c1
    · | -2.2% | i
> O=C(CSc1ccccn1)N1CCN(c2cccc(Cl)c2)CC1
    · | -0.8% | i
> CC(=NCCc1ccccc1)C1=C(O)COC1=O
    -0.51 | -7.9% | i
> CCCn1c(=C(C#N)C#N)s/c(=C2\C=Cc3ccccc3N2CC)c1=O
    -0.92 | -12% | i
> O=C(Cn1c(C(=O)NCCCN2CCOCC2)cc2sccc21)c1ccccc1
    0.76 | -5.4% | i
> CN1CCN(CCCNC(=O)c2ccc3c(c2)N(Cc2ccccc2)CCS3)CC1
    1.5 | 0.5% | i
> CC(C)CCn1c(S(=O)(=O)O)nc2ccccc21
    · | 2.6% | i
> COc1c(S(=O)(=O)N2CCN(c3ccc(F)cc3)CC2)ccc(Cl)c1Cl
    · | 2.4% | i
> COCCN1C(=O)c2oc3ccccc3c(=O)c2C1c1cccc(O)c1 (stereo not given)
    -0.39 | 2.6% | i
> Cc1cccc(NC(=O)NCCc2c[nH]c3ccccc23)c1
    · | -1.5% | i
> CC(=O)N1C(=O)C(=C2C=C(C)OC(C)=C2)c2ccccc21
    2.4 | -174% | i
> CCCc1[nH]nc2c1C(/C(C)=C/c1ccccc1)C(C#N)=C(N)O2 (stereo not given)
    -1.1 | -0.5% | i
> CCN1CCC2(CC1)C(C#N)=C(N)Oc1c2sc2nc(C)cc(C)c12
    -0.18 | -12% | i
> COc1ccc(C(O)C(CC(=O)NCCCOC(C)C)C(=O)NCCCOC(C)C)cc1OC (stereo not given)
    -0.47 | -6.4% | i
> O=C(CCN1C(=O)C2C3C=CC(C3)C2C1=O)Nc1ccc2ncccc2c1 (stereo not given)
    · | 3.7% | i

Reprinted from the part before: three compounds; new compounds follow.
Below each compound: WNV protease inh | Hsc70 ATP site | MT1-MMP reporter
> CCN1CCC2(CC1)C(C#N)=C(N)Oc1c2sc2nc(C)cc(C)c12
    -0.18 | -12% | i
> COc1ccc(C(O)C(CC(=O)NCCCOC(C)C)C(=O)NCCCOC(C)C)cc1OC (stereo not given)
    -0.47 | -6.4% | i
> O=C(CCN1C(=O)C2C3C=CC(C3)C2C1=O)Nc1ccc2ncccc2c1 (stereo not given)
    · | 3.7% | i
> Cn1ccnc1SCC(=O)Nc1ccc2ccccc2c1
    1.6 | 2.7% | i
> Cc1cc(OCCCn2ccnc2)cc(C)c1Cl
    -0.7 | -3.5% | i
> COc1ccccc1N(C(=O)CNS(=O)(=O)c1ccccc1)C(C(=O)NCc1ccco1)C(C)C (stereo not given)
    -0.85 | 4.2% | i
> CC1=C(C(N)=O)C(c2cccnc2)n2nc(SCc3ccccc3Cl)nc2N1 (stereo not given)
    -0.49 | 5.6% | i
> Cc1nn(C)c(C)c1NC(=O)CN1CCC(O)(c2ccc3c(c2)OCO3)CC1
    0.14 | 1.2% | i
> COc1ccc(CCN2C(=O)CC(N3CCOCC3)C2=O)cc1 (stereo not given)
    -0.77 | -2.6% | i
> CCOC(=O)N1CCN(C(=O)CN(c2cccc(C(F)(F)F)c2)S(C)(=O)=O)CC1
    -1.2 | 7.0% | i
> Cc1ccccc1Nc1ncnc2c1cnn2-c1ccccc1
    -0.1 | -5.6% | i

These rows are one share of the data. The share of hits here may be higher or lower than overall.
